# FGF22 binding: binders of human FGF22 protein, primary screen, FGF22 synaptogenesis inhibitor project, biophysical, thermal shift, single point; Fibroblast growth factor 22 (Homo sapiens), Q9HCT0; recombinant FGF22 thermal shift, SYPRO orange fluorescence; percent of sucrose octasulfate shift, DMSO zero; calls only at 9.99 µM; 340,000 tested, 1.5% active; AID 651658, 2012;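 active = melting point raised past a set limit in the mean and every replicate; three in four hits are not shown here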
# Target sequence (Q9HCT0 whole entry, looked up): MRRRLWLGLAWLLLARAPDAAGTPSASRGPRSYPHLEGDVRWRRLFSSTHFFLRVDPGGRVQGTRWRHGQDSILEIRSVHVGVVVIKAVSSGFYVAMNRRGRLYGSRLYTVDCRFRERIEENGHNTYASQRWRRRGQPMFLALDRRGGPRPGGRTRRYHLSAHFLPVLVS
# MLL AF4-AF9 inh: inhibitors of AF4 peptide binding to AF9, primary screen, biochemical, AlphaScreen, biotin-AF4 peptide, FLAG-AF9, single point | 350,000 tested, 0.47% active | Protein AF-9 (Homo sapiens), P42568 | inhibition, % at 10 µM | AID 651704, 2012;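 active = every replicate reaching a set inhibition limit, whatever the replicate mean, cut at about 25% in these data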;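 note: 0% = plate neutral control median and 100% = total signal loss; the record names both 10 and 1 µM as test concentration; the first replicate is given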
# Target sequence (P42568 whole entry, looked up): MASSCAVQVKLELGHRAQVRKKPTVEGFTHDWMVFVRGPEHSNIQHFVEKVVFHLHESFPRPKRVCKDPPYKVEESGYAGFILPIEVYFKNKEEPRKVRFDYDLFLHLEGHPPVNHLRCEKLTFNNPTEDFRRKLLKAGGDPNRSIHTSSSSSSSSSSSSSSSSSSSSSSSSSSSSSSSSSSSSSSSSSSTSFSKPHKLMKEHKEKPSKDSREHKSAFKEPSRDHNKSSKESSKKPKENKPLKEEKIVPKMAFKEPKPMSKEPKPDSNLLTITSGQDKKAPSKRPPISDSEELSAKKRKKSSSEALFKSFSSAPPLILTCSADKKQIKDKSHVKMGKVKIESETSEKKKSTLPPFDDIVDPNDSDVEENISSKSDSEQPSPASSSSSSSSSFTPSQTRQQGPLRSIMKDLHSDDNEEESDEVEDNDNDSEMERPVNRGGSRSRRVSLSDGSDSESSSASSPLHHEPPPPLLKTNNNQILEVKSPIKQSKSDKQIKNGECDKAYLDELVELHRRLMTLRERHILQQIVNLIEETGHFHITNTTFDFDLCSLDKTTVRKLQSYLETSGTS
# An asterisk follows results filed as active; i = inactive; + = active, no number; & = joins results of further samples. These rows are one share of the data; rates above refer to the full screens.
# Results follow in this order: FGF22 binding	MLL AF4-AF9 inh
O=C(c1cnccn1)N1CC2(C1)[C@H](c1ccccc1)[C@@H](CO)N2C(=O)c1ccccc1
  i	-3.4
C[C@@H]1CCCCO[C@@H](CN(C)C(=O)CCC(F)(F)F)[C@@H](C)CN([C@H](C)CO)C(=O)c2cc(NC(=O)C3CCCCC3)ccc2O1
  i	-2.7
CCCNC(=O)N(C)C[C@@H]1Oc2cc(-c3ccccc3F)ccc2S(=O)(=O)N([C@@H](C)CO)C[C@H]1C
  i	-1.0
Cc1noc(C)c1S(=O)(=O)Nc1ccc2c(c1)CC(=O)N([C@@H](C)CO)C[C@@H](C)[C@@H](CN(C)Cc1ccccc1)O2
  i	0.9
C[C@@H]1CN([C@H](C)CO)C(=O)c2cc(-c3ccccc3)cnc2O[C@H]1CN(C)C(=O)c1ccccc1F
  i	0.8
COCC(=O)N1CC2(CN(C(=O)c3ccccn3)C2)c2c(n(C)c3cc(OC)ccc23)[C@H]1CO
  i	-4.3
C[C@H](CO)N1C[C@H](C)[C@@H](CN(C)C(=O)Cc2ccccn2)Oc2ncc(-c3ccccc3)cc2C1=O
  i	-1.7
COc1cccc(C(=O)Nc2ccc3c(c2)C(=O)N(C)C[C@H](OC)[C@H](C)CN[C@@H](C)CO3)c1
  i	3.1
Cc1noc(C)c1S(=O)(=O)Nc1ccc2c(c1)C(=O)N([C@@H](C)CO)C[C@@H](C)[C@H](CN(C)C(=O)Nc1ccc(F)cc1)OCCCC[C@@H](C)O2
  i	-0.9
O=S(=O)(N[C@@H]1CC[C@@H](CCNS(=O)(=O)c2ccccc2Cl)O[C@@H]1CO)c1ccccc1
  i	-0.6
CO[C@H]1CN(C)C(=O)c2cc(NC(=O)NC(C)C)ccc2OC[C@@H](C)N(Cc2ccccc2)C[C@@H]1C
  i	-1.3
C[C@@H]1CN([C@H](C)CO)C(=O)c2cc(NC(=O)Nc3ccccc3)ccc2O[C@@H](C)CCCCO[C@@H]1CN(C)Cc1ccc2c(c1)OCO2
  i	6.7
CO[C@@H]1CN(C)C(=O)c2cc(NC(=O)C3CCOCC3)ccc2OC[C@H](C)N(Cc2nccs2)C[C@@H]1C
  i	-1.6
C[C@@H]1CN([C@H](C)CO)C(=O)c2cc(NC(=O)Nc3cccc4ccccc34)ccc2O[C@@H]1CN(C)C(=O)Nc1ccccc1
  i	3.2
O=C(C[C@@H]1CC[C@H](NC(=O)CC2CC2)[C@H](CO)O1)NCc1ccc(Cl)cc1
  i	-1.1

# Ordered by molecular weight (lowest first): part of the list above.
# Results follow in this order: FGF22 binding	MLL AF4-AF9 inh
COCC(=O)N1CC2(CN(C(=O)c3ccccn3)C2)c2c(n(C)c3cc(OC)ccc23)[C@H]1CO
  i	-4.3
O=S(=O)(N[C@@H]1CC[C@@H](CCNS(=O)(=O)c2ccccc2Cl)O[C@@H]1CO)c1ccccc1
  i	-0.6
CO[C@H]1CN(C)C(=O)c2cc(NC(=O)NC(C)C)ccc2OC[C@@H](C)N(Cc2ccccc2)C[C@@H]1C
  i	-1.3
CO[C@@H]1CN(C)C(=O)c2cc(NC(=O)C3CCOCC3)ccc2OC[C@H](C)N(Cc2nccs2)C[C@@H]1C
  i	-1.6
C[C@@H]1CN([C@H](C)CO)C(=O)c2cc(NC(=O)Nc3ccccc3)ccc2O[C@@H](C)CCCCO[C@@H]1CN(C)Cc1ccc2c(c1)OCO2
  i	6.7
Cc1noc(C)c1S(=O)(=O)Nc1ccc2c(c1)C(=O)N([C@@H](C)CO)C[C@@H](C)[C@H](CN(C)C(=O)Nc1ccc(F)cc1)OCCCC[C@@H](C)O2
  i	-0.9

# Continuation:
# Results follow in this order: FGF22 binding	MLL AF4-AF9 inh
C=CC[C@]1(C(=O)OC)N=C(c2ccc(OCCCO)cc2)O[C@H]1c1ccccc1
  i	3.5
O=C(NC[C@@H]1[C@H](c2ccccc2)[C@H](CO)N1C(=O)Cc1cccnc1)C1CC1
  +	-2.8
COc1ccc(NC(=O)N(C)C[C@H]2Oc3c(NC(=O)Nc4cccc5ccccc45)cccc3C(=O)N([C@H](C)CO)C[C@@H]2C)cc1
  i	4.4
O=C(C[C@@H]1CC[C@H](NC(=O)Nc2ccc3c(c2)OCO3)[C@H](CO)O1)NCc1ccc(Cl)cc1
  i	4.2
C[C@H](CO)N1C[C@H](C)[C@@H](CN(C)Cc2ccccc2F)Oc2ncc(-c3ccccc3F)cc2C1=O
  i	6.8
C[C@H]1CCCCO[C@@H](CN(C)C(=O)NC2CCCCC2)[C@@H](C)CN([C@@H](C)CO)C(=O)c2cc(NS(=O)(=O)c3ccc(F)cc3)ccc2O1
  i	-2.3
COC(=O)C[C@@H]1C[C@H]2c3cc(NC(=O)c4ccc5c(c4)OCO5)ccc3O[C@H]2[C@@H](CO)O1
  i	0.7
C[C@H](CO)N1C[C@H](C)[C@@H](CN(C)Cc2ccncc2)Oc2c(NC(=O)Nc3ccccc3)cccc2C1=O
  i	0.5
CN1CCN(C(=O)C[C@H]2C[C@@H]3c4cc(NC(=O)C5CCC5)ccc4O[C@@H]3[C@@H](CO)O2)CC1
  i	0.8
CCCNC(=O)C[C@H]1C[C@H]2c3cc(NC(=O)NC4CCCCC4)ccc3O[C@H]2[C@H](CO)O1
  i	6.0
O=S(=O)(Cc1ccccc1)NCC[C@H]1CC[C@@H](NS(=O)(=O)c2ccc(F)cc2)[C@@H](CO)O1
  i	1.5
C[C@H]1CN([C@@H](C)CO)C(=O)c2cccc(NS(=O)(=O)c3cn(C)cn3)c2O[C@H]1CN(C)Cc1ccccc1
  i	-2.6
CO[C@@H]1CN(C)C(=O)c2ccc(NC(C)=O)cc2OC[C@H](C)N(C(=O)Cc2ccccn2)C[C@@H]1C
  i	-3.9
O=C(Nc1ccc2c(c1)OCO2)N[C@@H]1CC[C@@H](CCNC(=O)C2CCOCC2)O[C@@H]1CO
  i	-1.0
C[C@H](NC(=O)C[C@@H]1C=C[C@H](NS(=O)(=O)c2cccc(F)c2)[C@@H](CO)O1)c1ccccc1
  i	1.7

# An excerpt from the list above, for reference:
# Results follow in this order: FGF22 binding	MLL AF4-AF9 inh
C=CC[C@]1(C(=O)OC)N=C(c2ccc(OCCCO)cc2)O[C@H]1c1ccccc1
  i	3.5
O=C(NC[C@@H]1[C@H](c2ccccc2)[C@H](CO)N1C(=O)Cc1cccnc1)C1CC1
  +	-2.8

# New compounds follow:
# Results follow in this order: FGF22 binding	MLL AF4-AF9 inh
Cn1cnc(S(=O)(=O)N[C@H]2C=C[C@H](CC(=O)NCC3CCCCC3)O[C@@H]2CO)c1
  i	0.7
C[C@@H]1CN([C@@H](C)CO)C(=O)Cc2cc(NC(=O)NC3CCCCC3)ccc2O[C@@H]1CN(C)Cc1ccc(Oc2ccccc2)cc1
  i	-2.4
C[C@@H]1CN([C@H](C)CO)C(=O)c2cc(-c3ccncc3)cnc2O[C@H]1CN(C)C(=O)c1ccc(F)cc1
  i	-2.7
C[C@@H]1CN([C@H](C)CO)C(=O)c2cccc(NS(=O)(=O)c3cn(C)cn3)c2O[C@@H]1CN(C)S(=O)(=O)c1cccs1
  i	-1.4
CCC(=O)N(C)C[C@@H]1Oc2ncc(-c3ccc(C(=O)N(C)C)cc3)cc2C(=O)N([C@@H](C)CO)C[C@@H]1C
  i	-2.4
C[C@H](CO)N1C[C@H](C)[C@@H](CN(C)Cc2ccc(C(=O)O)cc2)Oc2ccc(NC(=O)Nc3ccc(C(F)(F)F)cc3)cc2CC1=O
  i	0.6
COc1ccc(S(=O)(=O)N[C@H]2CC[C@@H](CCNC(=O)c3ccccc3F)O[C@H]2CO)cc1
  i	-1.1
C[C@H](CO)N1C[C@H](C)[C@@H](CN(C)S(=O)(=O)c2cn(C)cn2)OCc2ccccc2-c2c(n(C)c3ccccc23)C1=O
  i	4.2
CCCN1C[C@@H](C)[C@H](OC)CN(C)C(=O)c2ccc(NC(=O)c3cccc(F)c3)cc2OC[C@@H]1C
  i	45.0*
CCC(=O)N1C[C@@H]2[C@H](c3ccccc31)[C@H](CO)N2C(=O)Nc1ccccc1F
  i	-1.4
O=C(C[C@@H]1C[C@@H]2c3cc(NC(=O)C4CCOCC4)ccc3O[C@@H]2[C@@H](CO)O1)NCCc1ccccc1
  i	2.3
COc1ccc(CN(C)C[C@@H]2Oc3ccc(NS(=O)(=O)c4c(C)noc4C)cc3C(=O)N([C@@H](C)CO)C[C@@H]2C)cc1
  i	4.5
O=C(NCCN1CCCC1)[C@H]1[C@H](CO)[C@H]2Cn3c(cccc3=O)[C@H]2N1C(=O)c1ccccc1
  i	-0.6
C[C@@H]1CCCCO[C@H](CN(C)C(=O)Cc2ccccc2)[C@@H](C)CN([C@H](C)CO)C(=O)c2cc(NS(C)(=O)=O)ccc2O1
  i	3.3
CNC[C@@H]1Oc2ccc(NS(=O)(=O)c3cccs3)cc2C(=O)N([C@@H](C)CO)C[C@@H]1C
  i	-3.2
CNC[C@@H]1Oc2cc(-c3cncnc3)ccc2S(=O)(=O)N([C@@H](C)CO)C[C@H]1C
  i	1.6
CCCNC(=O)Nc1ccc2c(c1)OC[C@@H](C)N(Cc1cccnc1)C[C@H](C)[C@H](OC)CN(C)C2=O
  i	-1.7
COc1cccc(S(=O)(=O)N(C)C[C@@H]2Oc3ncc(C#CCC(C)C)cc3C(=O)N([C@@H](C)CO)C[C@H]2C)c1
  i	3.5
CO[C@H]1CN(C)C(=O)c2cc(NC(=O)Nc3cc(F)ccc3F)ccc2OC[C@@H](C)N(C(=O)c2cnccn2)C[C@H]1C
  i	1.9
COc1ccc(NC(=O)N(C)C[C@H]2Oc3ccc(NC(=O)CCCCCC(=O)Nc4ccccc4N)cc3CC(=O)N([C@@H](C)CO)C[C@@H]2C)cc1
  i	-1.2
C[C@H](CO)N1C[C@H](C)[C@@H](CN(C)C(=O)Nc2cccc3ccccc23)Oc2ccc(NS(=O)(=O)c3ccc(F)cc3)cc2C1=O
  i	0.1
CN(C)CC(=O)N1CCCCN2[C@H](CO)[C@H](c3ccc(-c4ccccc4)cc3)[C@@H]2C1
  i	-0.3
C[C@H]1CN([C@@H](C)CO)C(=O)c2c(c3ccccc3n2C)-c2ccccc2CO[C@@H]1CN(C)C(=O)c1ccncc1
  i	-3.4
C[C@H]1CCCCO[C@H](CN(C)C(=O)CCC(F)(F)F)[C@@H](C)CN([C@@H](C)CO)C(=O)c2cc(NC(=O)CCC(F)(F)F)ccc2O1
  i	7.9
C[C@H]1CN([C@@H](C)CO)C(=O)c2cc(-c3ccc(F)cc3)cnc2O[C@@H]1CN(C)C(=O)c1ccccc1F
  i	-6.6
CN1C(=O)c2cc(NC(=O)Nc3cccc(C#N)c3)ccc2OC[C@H]2O[C@@H](CC(=O)Nc3ccc4c(c3)CCC4)CC[C@@H]21
  i	2.1
CO[C@H]1CN(C)C(=O)c2ccc(NC(=O)c3cccc(F)c3)cc2OC[C@@H](C)NC[C@@H]1C
  i	-3.0
C[C@H]1CN([C@@H](C)CO)C(=O)c2cc(C#Cc3ccncc3)cnc2O[C@@H]1CN(C)CC1CCCCC1
  i	-3.4
C[C@@H](NC(=O)C[C@H]1C=C[C@H](NC(=O)CN2CCOCC2)[C@@H](CO)O1)c1ccccc1
  i	-3.3
C[C@@H]1CCCCO[C@H](CN(C)C(=O)CCCN(C)C)[C@@H](C)CN([C@H](C)CO)C(=O)c2cc(NC(=O)Nc3ccc(F)cc3)ccc2O1
  i	-10.6

# (listing goes on)
Structure,FGF22 binding,MLL AF4-AF9 inh
O=C(C[C@H]1CC[C@H]2[C@@H](COC[C@@H](O)CN2C(=O)c2ccccc2)O1)NCc1cccc(F)c1,i,-9.5
Cc1noc(C)c1NC(=O)Nc1ccc2c(c1)C(=O)N([C@H](C)CO)C[C@@H](C)[C@H](CN(C)C(=O)Nc1ccc(C(F)(F)F)cc1)OCCCC[C@H](C)O2,i,0.3
CC(C)CNC(=O)[C@@]1(c2ccc([N+](=O)[O-])cc2)CC(=O)N(CC23CC4CC(CC(C4)C2)C3)[C@@H]1c1ccc(CO)cc1,i,5.4
COc1ccc(S(=O)(=O)N[C@H]2C=C[C@H](CC(=O)N3CCC(Cc4ccccc4)CC3)O[C@@H]2CO)cc1,i,2.5
Cc1ccc(S(=O)(=O)Nc2ccc3c(c2)C(=O)N([C@@H](C)CO)C[C@@H](C)[C@@H](CN(C)Cc2ccc(C(=O)O)cc2)O3)cc1,i,-1.7
CO[C@@H]1CN(C)C(=O)c2ccc(NS(=O)(=O)c3cn(C)cn3)cc2OC[C@@H](C)N(CCC(F)(F)F)C[C@H]1C,i,-10.9
C[C@@H]1CN([C@H](C)CO)C(=O)Cc2cc(NC(=O)Nc3ccccc3)ccc2O[C@H]1CN(C)C(=O)Nc1cccc2ccccc12,i,-0.9
O=C(C[C@H]1C=C[C@@H](NC(=O)Nc2cc(F)ccc2F)[C@@H](CO)O1)NCc1ccc2c(c1)OCO2,i,3.1
CC(C)NC(=O)N(C)C[C@H]1Oc2ccc(NC(=O)C3CC3)cc2C(=O)N([C@@H](C)CO)C[C@H]1C,i,-3.8
C[C@H](CO)N1C[C@H](C)[C@H](CN(C)Cc2ccc(F)cc2)Oc2ncc(Br)cc2C1=O,i,2.9&6.5
CO[C@H]1CC[C@@H]2CCOc3ccc(C#N)cc3C(=O)N(C)C[C@@H](C)C(=O)N(C)C[C@@H]1O2,i,1.8
CO[C@H]1CN(C)C(=O)c2ccc(NC(=O)Nc3ccccc3)cc2OC[C@H](C)NC[C@H]1C,i,2.5
C[C@@H]1CN([C@@H](C)CO)C(=O)c2cc(NC(=O)CCN3CCOCC3)ccc2O[C@@H]1CN(C)Cc1ccc(Cl)c(Cl)c1,i,2.3
CCC(=O)N(C)C[C@H]1Oc2ncc(C3=CCCC3)cc2C(=O)N([C@@H](C)CO)C[C@@H]1C,i,0.1
C/C=C/c1ccc([C@H]2[C@@H](CO)N3CCCCN(S(=O)(=O)c4cccs4)C[C@H]23)cc1,i,1.5
COc1ccccc1C(=O)Nc1ccc2c(c1)C(=O)N(C)[C@H]1CC[C@H](CC(=O)Nc3cc(F)ccc3F)O[C@@H]1CO2,i,0.7

# Screening data: PubChem, Broad Institute
